Screening data deposited in PubChem BioAssay by ICCB-Longwood Screening Facility, Harvard Medical School.
UCH37 inh: blocks the human deubiquitinase UCH37. purified proteasome/UCH37, Ub-AMC cleavage fluorescence. inhibition, % (concentration not given with the values). 330,000 compounds, 0.33% hits. Q9Y5K5;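 active means mean of two replicates above 20%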;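 further: 0% = compound-free wells with enzyme and 100% = wells lacking proteasome; stock transfer was 100 nL into about 20 µL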
Target sequence (Q9Y5K5 whole entry, looked up): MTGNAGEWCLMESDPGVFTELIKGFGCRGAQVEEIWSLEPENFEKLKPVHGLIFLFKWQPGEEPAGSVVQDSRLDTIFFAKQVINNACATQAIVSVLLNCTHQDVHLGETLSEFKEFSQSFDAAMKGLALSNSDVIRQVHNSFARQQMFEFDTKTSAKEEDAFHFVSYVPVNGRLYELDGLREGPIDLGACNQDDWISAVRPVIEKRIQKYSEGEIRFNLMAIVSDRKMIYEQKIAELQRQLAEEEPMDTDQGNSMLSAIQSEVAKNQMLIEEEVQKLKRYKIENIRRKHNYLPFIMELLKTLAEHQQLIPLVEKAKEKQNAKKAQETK
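System: Proteasome-associated human UCH37 deubiquitinase; Input: 0.15 nM proteasome in added enzyme buffer; Also added: Ub-AMC substrate from 1 µM stock; Incubation: 30 min compound-proteasome preincubation then 25 min substrate reaction, room temperature; Detection: fluorescence, ex 355 nm, em 460 nm; Read-out: % inhibition of Ub-AMC cleavage fluorescence; Benchmarks: no-proteasome and no-compound wells.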
Ecoli growth: inhibitors of Escherichia coli growth; OD600, 23 h; active compounds read low; OD600 absorbance (test concentration not listed); 330,000 compounds, 0.21% hits; AID 1053175;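 active means OD600 absorbance below the run mean of sample wells minus 3.6 SD, in any replicate, cut at about 0.56 in these data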;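 further: stock transfer was 300 nL into about 60 µL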
Starred values were filed as active, the others as inactive; & = joins results of further samples. Some of the compounds tested. The share of hits here may be higher or lower than overall.

nr	UCH37 inh	Ecoli growth	mol
1	6.1	0.71	COc1ccc(C(C)=NNC(=O)c2ccc(CSc3nncn3C)cc2)cc1
2	11	0.71	COc1ccc(OC)c(C=NNC(=O)c2ccc(=O)[nH]n2)c1
3	-0.5	0.68	CN(Cc1c(C(=O)NN=Cc2c(F)cccc2Cl)nnn1-c1nonc1N)c1ccccc1
4	0.9	0.74	CC(=NNC(=O)C(C)Oc1ccc([N+](=O)[O-])cc1)c1ccccn1 (stereo not given)
5	-3.8	0.66	Nc1cc(Cl)nc(NN=Cc2c(O)ccc3ccccc23)n1
6	1.1	0.67	O=C(NN=C1CC2CC=CC12)c1ccc(O)cc1 (stereo not given)
7	1.0	0.7	CCn1c(SCC(=O)NN=Cc2ccc(C)o2)nnc1-c1ccc(C)cc1
8	0.1	0.71	CC(C)c1c(C(=O)NN=Cc2ccc(Cl)cc2Cl)nnn1-c1nonc1N
9	0.0	0.62	CC(C)c1c(C(=O)NN=CC2CC=CCC2)nnn1-c1nonc1N (stereo not given)
10	-15	0.68	CNC(=S)NN=C(C)c1ccc(N2CCOCC2)cc1
11	3.6	0.79	CC(C)(C=NO)/[N+]([O-])=C/c1ccco1
12	2.0	0.7	CC(CC(C)C)=NNC(=O)Nc1ccccc1
13	3.2	0.68	CCC(=NNC(=O)c1nnn(-c2nonc2N)c1-c1ccc2c(c1)OCO2)c1ccccc1
14	1.0	0.67	Cc1[nH]c(=O)[nH]c(=O)c1C=NNC(=O)CCNC(=O)OC(C)(C)C
15	-4.2	0.66	COc1cccc(C=Nn2cnnc2)c1OCc1ccccc1
16	9.2	0.6	O=C(NN=Cc1ccc([N+](=O)[O-])o1)c1ccccc1-n1cccc1
17	4.2	0.67	CC(=NNC(=O)CNC(=O)COc1cccc(C)c1)c1ccc(Cl)cc1
18	-41	0.72	CN(N=C/C=C/c1ccccc1)c1cc(=O)n(C)c(=O)[nH]1
19	2.9	0.74	CC(=NN1CCN(C2c3ccccc3-c3ccccc32)CC1)c1ccco1
20	-11	0.69	CCOc1ccccc1C(=O)NN=Cc1c[nH]c2ccccc12
21	2.9	0.66	COc1cc(C(=O)O[C@H]2CC(C)=CCC[C@@]3(C)O[C@@H]3[C@H](O)[C@@H]2C(C)C)cc(OC)c1OC
22	9.7	0.7	O=C(NN=Cc1ccco1)c1ccc(C(=O)NN=Cc2ccco2)o1
23	4.1	0.66	Nc1nnn(CC(=O)NN=Cc2cccc3ccccc23)n1
24	3.0	0.61	NC(=NOC(=O)c1ccc(Cl)cc1[N+](=O)[O-])c1ccccn1
25	6.4	0.73	CC1=CC(=O)C(C(C)C)=CC1=NOC(=O)c1cccc([N+](=O)[O-])c1
26	-16	0.65	Cc1cc(C)n(N=Cc2cc(Cl)cc(Cl)c2O)c(=O)c1
27	2.8	0.73	Cc1ccc(-n2c(SCC(=O)NN=Cc3c(C)nn(-c4ccccc4)c3C)nc3ccccc3c2=O)cc1
28	15	0.64	COc1cc(C(C)=NNc2ccc(C(=O)O)cc2)cc(OC)c1OC
29	4.6	0.65	Cc1ccc(-c2cc(C(=O)NN=Cc3c[nH]c4ccccc34)[nH]n2)cc1
30	20	0.68	CCN(N=C/C=C/c1ccccc1)c1cc(=O)n(C)c(=O)[nH]1
31	5.9	0.74	O=[N+]([O-])c1cccc(C=NNc2nc(N3CCOCC3)nc(N3CCOCC3)n2)c1
32	4.0	0.73	CCCC1SC(=NN=Cc2ccc(OC)cc2)N(Cc2ccccc2)C1=O (stereo not given)
33	1.3	0.69	O=C(Cc1ccccc1)ON=C1CCCc2ccccc21
34	8.0	0.67	CCC(=NNc1ccccc1)c1cnnc(-c2ccccc2)n1
35	5.0	0.67	Cc1cc(C=NNC(=O)c2cccc(N(C)C)c2)c(C)n1-c1cc(C(=O)O)cc(C(=O)O)c1
36	3.2	0.64	COc1cccc(C=NNC(=O)Cn2nnc3ccccc32)c1O
37	0.8	0.77	Cc1ccc(S(=O)(=O)N=C(c2ccc(F)cc2)n2c(C)nc3ccccc32)cc1
38	5.0	0.68	Cc1nn(C)cc1C=NNC(=O)CSc1ccccn1
39	4.1	0.72	O=C(Oc1cccc(C=NNC(=O)c2ccccn2)c1)c1ccc([N+](=O)[O-])cc1
40	3.9	0.68	S=c1[nH]nc(-c2ccncc2)n1N=Cc1cn(-c2ccccc2)nc1-c1ccccc1
41	5.7	0.74	Cc1ccc(C=NNC(=O)c2ccccc2OCc2ccc(F)cc2)o1
42	2.4	0.69	COc1ccc(C=NNC(=O)c2ccncc2)cc1CSc1nc2ccccc2s1
43	0.2	0.65	COc1ccc(-c2nn(-c3ccccc3)cc2C=NO)cc1OC
44	5.0	0.65	CC(=O)Nc1ccc(C(C)=NNC(=O)c2ccccc2Cl)cc1
45	1.9	0.7	CON=C(CS(=O)c1ccc(Br)cc1)c1ccc(OC)cc1 (stereo not given)
46	14	0.67	COc1cc([N+](=O)[O-])cc(C=NNC(=O)CSc2ccccn2)c1O
47	-0.6	0.7	COC(=O)NN=C(C)c1ccccc1Br
48	1.0	0.71	O=C(NN=Cc1ccc(Br)cc1)c1ccccc1-n1cccc1
49	4.2	0.69	CC(=O)Oc1ccccc1C(=O)Oc1ccc(C=Nn2cnnc2)cc1
50	-35	0.61	CCOc1ccc(C=NNC(=O)c2nnn(-c3nonc3N)c2CN2CCC(C)CC2)cc1
51	1.4	0.62	CC(CC(=O)Nc1ccc(Cl)cc1Cl)=NNC(N)=S
52	0.5	0.68	COc1ccc(C=NOCC(=O)Nc2nc3ccccc3s2)cc1OC
53	4.1	0.66	COC(=O)Cn1cc(C=NNC(=O)COc2cccc3cccnc23)c2ccccc21
54	2.8	0.7	COc1ccc(C)cc1NC(=O)C(=O)NN=C(C)CC(=O)Nc1cccnc1
55	2.2	0.7	COc1ccc(-c2cn(N=Cc3ccc(Cl)cc3Cl)c(N)n2)cc1
56	2.9	0.68	CCC(=NNC(=O)c1ccc(Br)cc1)c1ccc(OCCN2CCOCC2)cc1
57	1.2	0.71	C=CCON=C(CCC)C1=C(N)CC(C)(C)CC1=O
58	0.6	0.7	CCN(C=NS(=O)(=O)c1ccc(Cl)cc1)CC
59	-0.8	0.73	CC(=NOC(=O)c1c(-c2ccccc2Cl)noc1C)c1nccs1
60	0.7	0.66	CC(=NNC(=O)COc1cc(C)ccc1C(C)C)C(=O)O

In the list so far, these have an NH in an aromatic ring:
nr	UCH37 inh	Ecoli growth	mol
2	11	0.71	COc1ccc(OC)c(C=NNC(=O)c2ccc(=O)[nH]n2)c1
14	1.0	0.67	Cc1[nH]c(=O)[nH]c(=O)c1C=NNC(=O)CCNC(=O)OC(C)(C)C
18	-41	0.72	CN(N=C/C=C/c1ccccc1)c1cc(=O)n(C)c(=O)[nH]1
20	-11	0.69	CCOc1ccccc1C(=O)NN=Cc1c[nH]c2ccccc12
29	4.6	0.65	Cc1ccc(-c2cc(C(=O)NN=Cc3c[nH]c4ccccc34)[nH]n2)cc1
30	20	0.68	CCN(N=C/C=C/c1ccccc1)c1cc(=O)n(C)c(=O)[nH]1
40	3.9	0.68	S=c1[nH]nc(-c2ccncc2)n1N=Cc1cn(-c2ccccc2)nc1-c1ccccc1

The listing picks up, starting five compounds before the break.
nr	UCH37 inh	Ecoli growth	mol
56	2.9	0.68	CCC(=NNC(=O)c1ccc(Br)cc1)c1ccc(OCCN2CCOCC2)cc1
57	1.2	0.71	C=CCON=C(CCC)C1=C(N)CC(C)(C)CC1=O
58	0.6	0.7	CCN(C=NS(=O)(=O)c1ccc(Cl)cc1)CC
59	-0.8	0.73	CC(=NOC(=O)c1c(-c2ccccc2Cl)noc1C)c1nccs1
60	0.7	0.66	CC(=NNC(=O)COc1cc(C)ccc1C(C)C)C(=O)O
61	0.6	0.65	CC(C)c1c(C(=O)NN=Cc2ccc3c(c2)OCO3)nnn1-c1nonc1N
62	-6.0	0.75	Cc1nc2c(c(=O)n1CCC1=CCCCC1)c1nc3ccccc3nc1n2N=Cc1ccco1
63	2.0	0.71	CC1C(=NO)CC(c2ccccc2)NC1c1ccccc1 (stereo not given)
64	4.7	0.71	COC(=O)c1c(N=CN(C)C)sc2c1CCN(c1ncc(C(F)(F)F)cc1Cl)C2
65	2.2	0.69	CN1C(=O)C(=NOC(=O)c2ccccc2Cl)c2ccccc21
66	-5.3	0.66	COc1ccc(C=NNC(=O)c2cccc(Br)c2)c(OC)c1
67	0.5	0.7	COc1nc(Oc2ccc(C=NO)cc2)nc(N(C)C)n1
68	0.0	0.72	Cc1cc(OCC(=O)ON=C(N)c2ccccc2)ccc1Br
69	4.3	0.76	Cc1cc(C=NNC(=O)CC2(C)OCCO2)c(C)n1-c1ccc(Cl)c(Cl)c1
70	1.1	0.71	CCN(CC)Cc1c(C(=O)NN=Cc2cccc(OCc3cccc(Cl)c3)c2)nnn1-c1nonc1N
71	1.8&3.6	0.69&0.72	C[n+]1ccccc1C=NO
72	1.7	0.65	O=C(CC=NOCc1ccc(Cl)cc1Cl)Nc1ccccc1
73	4.5	0.68	CC(CC(=O)Nc1cccnc1)=NNC(=O)C(=O)NC(C)C
74	2.0	0.63	O=C(O)CCC(=NNC(=O)c1cn(-c2ccccc2)nc1-c1ccccc1)C(=O)O
75	2.8	0.69	O=C(COc1ccc(Cl)cc1Cl)NN=Cc1cccnc1
76	3.9	0.61	COc1ccc2ccccc2c1C=NNC(=O)c1ccc(C)nc1
77	1.7	0.69	O=C(NN=Cc1ccc(Br)cc1)c1ccc(F)cc1
78	-0.1	0.63	CC(=O)Nc1ccc(NC(=O)CC(C)=NNC(N)=S)cc1
79	6.0	0.69	Cc1[nH]c2ccccc2c1C=NNC(=O)c1cc(-c2ccncc2)nc2ccccc12
80	-13	0.7	COc1ccc(NS(=O)(=O)c2cccc(C(=O)NN=Cc3cn(-c4ccccc4)nc3-c3ccc(OC)cc3)c2)cc1
81	-10	0.64	COc1cccc2c(SCC(=O)NN=Cc3ccc(O)cc3O)cc(C)nc12
82	0.3	0.73	CCOc1cccc(-c2c(C(=O)NN=Cc3sccc3C)nnn2-c2nonc2N)c1
83	0.8	0.69	CCN1C(=O)CSC1=NS(=O)(=O)c1ccc(C)cc1
84	4.8	0.69	C=CCc1c(C)nc(-c2ccccc2)nc1NN=C(C)c1ccccc1
85	-16	0.74	COc1ccc(-c2cc(C(=O)NN=Cc3ccc4c(c3)OCO4)c3ccccc3n2)c(OC)c1
86	5.0	0.64	CC(=NNC(=O)c1nonc1N)c1cccs1
87	-205	0.83	COc1ccc(C=NNC(=O)c2nc(Cl)c(Cl)c(N)c2Cl)cc1COc1ccccc1F
88	7.0	0.64	O=C(NN=Cc1ccc[nH]1)C1COc2ccccc2O1 (stereo not given)
89	8.3	0.71	FC(F)(F)c1cccc(-c2ccc(C=NNc3nncc(-c4ccccc4)n3)o2)c1
90	4.0	0.69	COc1ccc(-c2nn(CCC#N)cc2C=NO)cc1
91	5.7	0.71	COc1ccc(C=NNC(=O)c2c(-c3ccccc3)noc2C)cc1[N+](=O)[O-]
92	18	0.61	O=C(O)COc1ccc(C=NNC(=O)/C(=C/C=C/c2ccccc2)NC(=O)c2ccccc2)cc1
93	-4.5	0.7	CCOC(=O)NN=Cc1ccc(N2CCOCC2)s1
94	3.6	0.69	O=[N+]([O-])c1cccc(C=NNc2nc(N3CCCCC3)nc(N3CCCCC3)n2)c1
95	-5.8	0.68	COc1ccc(C(C)=NOC/C(O)=C(\C#N)c2nc3ccccc3[nH]2)cc1
96	7.9	0.69	CCN(C=Nc1sc2c(c1C#N)CC(C)(C)NC2(C)C)CC
97	2.4	0.67	CCOc1ccc(C=NOCC(=O)NCc2ccc3c(c2)OCO3)cc1OC
98	8.0	0.73	Clc1ccccc1C=NNC1=Nc2cccc3cccc1c23
99	-27	0.62	COc1cc(C=NNC(=O)Cc2csc(N3CCOCC3)n2)cc(OC)c1O
100	4.1	0.71	CC(C)=NN=C(c1ccc([N+](=O)[O-])cc1)C12CN3CN(CN(C3)C1)C2
101	1.9	0.69	NC(=NOC(=O)CC1CCCCC1)c1ccc([N+](=O)[O-])cc1
102	0.7	0.68	Nc1nonc1-n1nnc(C(=O)NN=CC2CCCCC2)c1-c1ccccc1
103	-23	0.72	Cc1cc(Cl)ccc1NC(=O)C(=O)NN=Cc1ccc2c(c1)OCO2
104	0.4	0.69	CCOc1ccc(NC(=O)CC(C)=NNC(=O)c2cnccn2)cc1
105	-0.2	0.63	CC(=N/N=C1/NC(=O)C(CC(=O)Nc2ccccc2F)S1)C1CCCCC1 (stereo not given)
106	-2.2	0.65	COC(=O)NN=C(C)c1ccc(OC(F)F)cc1OC(F)F
107	7.4	0.73	CCn1c(C)csc1=NC(=S)Nc1ccccc1C
108	4.4	0.68	CC(=NO)C(C)(C)Nc1cccc(Br)c1
109	3.0	0.67	CC(C)(C)OC(=O)NN=Cc1ccc(C(=O)O)cc1
110	3.7	0.7	Cc1ccc(N(CC(=O)NN=Cc2ccc(OCC(N)=O)cc2)S(C)(=O)=O)cc1Cl
111	2.7	0.64	CSCCOC(=O)COc1ccc(C=NNC(=O)c2c(Cl)cnn2C)cc1
112	7.5	0.69	COc1ccccc1OCC(=O)NN=C1CCc2ccccc21
